HSF-1 act: increases HSF-1 driven luciferase reporter signal. AID 504408. NIH3T3-HGL HSF-1 luciferase reporter, MG132, 8 h; 100% = twice DMSO control signal. 1.7% of 300,000 active. activation, % at 9 µM;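 active = mean replicate activation of at least 50% with a set share of replicates each reaching 50%; inconclusive = only one of those two conditions met; inactive = mean below 50% and too few replicates reaching it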;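 note: 0% = median of the neutral control wells and 100% = twice that signal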
AI-2 QS modul: modulators of Vibrio harveyi AI-2 quorum sensing system; Vibrio harveyi JMH597 AI-2 luminescence/OD600 ratio, 9 h; active compounds read low; strain lacks LuxN and CqsS sensors; 0 = neutral-control median; 0.4% of 300,000 active; activity change, % at 7.5 µM; in the data active = activity change below about -75%, passing the limit was not always enough; inconclusive = no clear call, values can overlap the other calls;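 note: luminescence divided by OD600 gain over 9 h not by final OD600 alone; inactives centre near 13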
HSP90 refold inh: HSP90 refolding inhibition in rabbit reticulocyte lysate. AID 1789. luciferase refolding luminescence, 3 h. 0.91% of 290,000 active. inhibition, % at 5.6 µM;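 active = inhibition above the screen-wide mean plus 3 SD, computed separately per campaign, cut at about 16% in these data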;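 note: 0% = DMSO wells and 100% = 60 µM geldanamycin wells; inhibitors lower the luminescence because luciferase stays unfolded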
HSF1 inh: HSF1 inhibition. NIH3T3-HGL HSE-luciferase, MG132-induced, luminescence 8 h; active compounds read low. activity change, negative = inhibition, % at 7.5 µM (by protocol). 0.77% of 300,000 active. AID 2098;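 active = more than half of replicate wells show activity change below -50%, luminescence cut by over half; inconclusive = some wells, but at most half, below -50%; inactive = no replicate well below -50%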;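 note: luciferase reports HSF-1 transcriptional activity via heat shock element; 0% = median of DMSO wells and -100% = zero luminescence signal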
GSK3B inh: inhibitors of human GSK3beta kinase. GST-GSK3beta kinase, ADP-Glo luminescence, 60 min; active compounds read low. P49841. activity score (negative = inhibition), % at 10 µM. AID 2097. 0.038% of 300,000 active;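 active = more than half of replicate wells score below -50%, meaning over 50% inhibition versus plate controls; inconclusive = some replicates but at most half score below -50%; inactive = no replicate scores below -50%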;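 note: 0% = median DMSO wells and -100% = median GW8510 positive control wells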
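Test system: GST-tagged human GSK3beta kinase, cell-free; evaluation: activity score scaled between in-plate DMSO and GW8510 controls; measured by: ADP-Glo luminescence; incubation: 60 min reaction, RT; benchmarks: DMSO and 20 µM GW8510; reagent: peptide substrate plus 25 µM ATP (final); medium: Tris/MgCl2 kinase buffer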
PolyA inhibitor: blocks polyadenylation in yeast reporter cells. S. cerevisiae SKY197-pL101 polyadenylation reporter, beta-gal luminescence; efflux-impaired pdr1/pdr3 knockout yeast; score 100 = 6 SD above DMSO. calls only at 12 µM. 0.02% of 300,000 active. AID 1875;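 active = lowest replicate activity score at least 50, where 100 means six control SD above control mean; inconclusive = lowest score under 50 but half or more replicates reach 50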;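 note: yeast exposed to compound for 9 h at 30 °C; higher score means more reporter readthrough which indicates perturbed polyadenylation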
HDAC3 inhib: inhibitors of human histone deacetylase 3; O15379; inhibition, % at 8.3 µM; recombinant HDAC3, fluorogenic peptide/trypsin coupled, fluorescence; 0.15% of 320,000 active; in the data active = inhibition above about 26%, passing the limit was not always enough; inconclusive = no clear call, values can overlap the other calls
Target sequence (O15379 whole entry, looked up): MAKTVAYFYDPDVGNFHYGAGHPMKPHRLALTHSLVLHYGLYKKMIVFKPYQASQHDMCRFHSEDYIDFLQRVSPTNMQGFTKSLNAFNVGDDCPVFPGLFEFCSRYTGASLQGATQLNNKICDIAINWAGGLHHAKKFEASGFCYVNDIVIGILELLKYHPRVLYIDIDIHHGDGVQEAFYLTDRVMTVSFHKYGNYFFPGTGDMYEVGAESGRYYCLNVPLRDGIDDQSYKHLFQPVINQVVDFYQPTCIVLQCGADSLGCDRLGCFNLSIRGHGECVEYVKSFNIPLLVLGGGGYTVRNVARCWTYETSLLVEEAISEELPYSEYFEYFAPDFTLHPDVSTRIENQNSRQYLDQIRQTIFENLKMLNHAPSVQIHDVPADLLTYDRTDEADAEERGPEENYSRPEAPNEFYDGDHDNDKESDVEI
Platelet DG rel: modulates dense granule release in human platelets; human platelet-rich plasma, SFLLRN dense granule ATP release, luminescence; inhibition, %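 (compounds screened at 7.5 µM in platelet-rich plasma)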; 0.22% of 300,000 active;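 active = mean replicate score, as percent of positive control, at or above 50; inconclusive = mean below 50 but at least one replicate at or above 50; inactive = mean and every replicate below 50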
GSK3A inh: inhibitors of human GSK-3 alpha kinase; ADP-Glo luminescence, 60 min; inhibition, % at 10 µM; 0.1% of 320,000 active;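 in the data active = inhibition above about 50%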;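 note: GST-tagged GSK-3 alpha with peptide substrate and 25 µM ATP; 0% = DMSO neutral wells and 100% = GW8510 positive control wells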
Target sequence (P49840 whole entry, looked up): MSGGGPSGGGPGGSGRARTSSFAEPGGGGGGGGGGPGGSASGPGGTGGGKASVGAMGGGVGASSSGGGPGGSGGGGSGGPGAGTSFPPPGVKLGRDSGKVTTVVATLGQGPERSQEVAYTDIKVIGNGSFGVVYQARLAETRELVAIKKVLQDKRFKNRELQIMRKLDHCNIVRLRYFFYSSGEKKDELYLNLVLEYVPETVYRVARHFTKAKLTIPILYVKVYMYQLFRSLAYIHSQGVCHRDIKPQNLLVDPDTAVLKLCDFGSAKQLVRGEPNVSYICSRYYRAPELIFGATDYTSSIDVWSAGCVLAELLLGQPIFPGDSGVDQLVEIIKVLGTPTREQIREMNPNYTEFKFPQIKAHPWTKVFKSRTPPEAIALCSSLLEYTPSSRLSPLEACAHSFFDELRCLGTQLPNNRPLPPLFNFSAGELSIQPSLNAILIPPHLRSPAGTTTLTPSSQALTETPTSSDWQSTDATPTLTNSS
Numbers without * were called inactive; i = inactive; ? = inconclusive; / = no result given. Some of the compounds tested; the hit share may differ from the screen's.

SMILES	HSF-1 act	AI-2 QS modul	HSP90 refold inh	HSF1 inh	GSK3B inh	PolyA inhibitor	HDAC3 inhib	Platelet DG rel	GSK3A inh
O=C1OC(c2ccc(F)cc2)=N/C1=C\c1ccc(Br)o1	-6	6	2	0	1	i	-2	-4	-2
COc1cc(C=O)ccc1Oc1nnnn1-c1ccc(C(N)=O)cc1	17	6	1	3	2	i	-3	-9	0
Brc1ccccc1C1=Nn2c(nnc2-c2ccco2)SC1	-1	22	-2	13	-20	i	3	0	26
Cc1cccc(Nc2ncnc(N)c2[N+](=O)[O-])n1	-7	29	-2	2	-6	i	2	-3	13
O=C1Nc2cc(C(=O)N3CCc4ccccc4C3)ccc2S/C1=C\c1ccccc1	6	3	2	2	0	i	4	6	3
CCC(O)CNc1nc(SC)nc2sc3c(c12)CCN(C)C3 (centres undefined)	14	16	-1	-8	0	i	-54	12	88*
Oc1ccc(-n2nnnc2SCc2ccccc2Br)cc1	-13	?	0	1	1	i	-1	0	0
NC(=O)c1ccc(-n2nnnc2Oc2ccccc2C(=O)N2CCOCC2)cc1	-1	11	1	-2	-1	i	1	-9	-3
CC(=O)Nc1ccc(S(=O)(=O)N[C@@H](C)C(=O)OCC(=O)c2ccc[nH]2)cc1	/	/	/	/	/	/	0	/	-5
COc1ccc2cc(C(N)=O)/c(=N/NC(=O)c3ccco3)oc2c1	8	8	-3	1	-33	i	-5	8	2
COc1ccc2nc(NC(=O)[C@@H]3CCCN3C(=O)c3cccs3)sc2c1	-1	9	0	6	-15	i	3	-4	4
COc1cc(C)c(Cl)c(C)c1S(=O)(=O)NCc1ccc2c(c1)OCO2	18	-20	5	-3	0	i	2	-8	1
CCCn1nc(C(=O)Nc2cc(C(=O)OC)ccc2C)c2ccccc2c1=O	-17	6	-3	1	-11	i	-3	10	-1
CC(NC(=O)c1ccc(Cl)cc1)C(=O)NC1=NCCS1 (centres undefined)	-20	8	2	-3	-2	i	3	-1	-3
C/C(=N/OCO/N=C(\C)c1ccccc1)c1ccccc1	-9	20	2	-3	3	i	1	25	0
COc1ccc(OC)c(-c2csc(N3CCC(c4ccccc4)CC3)n2)c1	7	40	-3	-1	3	i	1	-2	5
c1ccc(C(c2nnnn2C2CCCC2)N2CCCCCC2)nc1 (centres undefined)	6	40	-1	0	-1	i	1	-2	3
COc1ccc(-c2nc3ccccc3o2)cc1NC(=O)c1ccc(Br)o1	5	6	-1	-3	-2	i	-4	13	-2
Cc1nc(NC(=O)c2ccc(Cl)cc2)sc1Cc1ccc2c(c1)OCO2	5	1	4	-1	4	i	-17	-7	/
N#CC(c1cccc(C(F)(F)F)c1)(c1ncc(C(F)(F)F)cc1Cl)N1CCOCC1 (centres undefined)	12	12	2	2	2	i	9	-3	1

Record cards (already shown). Values in the order: HSF-1 act, AI-2 QS modul, HSP90 refold inh, HSF1 inh, GSK3B inh, PolyA inhibitor, HDAC3 inhib, Platelet DG rel, GSK3A inh
Oc1ccc(-n2nnnc2SCc2ccccc2Br)cc1 as listed: -13, ?, 0, 1, 1, i, -1, 0, 0
COc1ccc(-c2nc3ccccc3o2)cc1NC(=O)c1ccc(Br)o1 as listed: 5, 6, -1, -3, -2, i, -4, 13, -2
COc1cc(C=O)ccc1Oc1nnnn1-c1ccc(C(N)=O)cc1 as listed: 17, 6, 1, 3, 2, i, -3, -9, 0

Remaining list, next part
SMILES	HSF-1 act	AI-2 QS modul	HSP90 refold inh	HSF1 inh	GSK3B inh	PolyA inhibitor	HDAC3 inhib	Platelet DG rel	GSK3A inh
CC(=O)Nc1cccc(/C(C)=N/NC(=O)c2ccc(NS(=O)(=O)c3cccs3)cc2)c1	-4	52	-3	-4	6	i	3	9	-1
CCc1nc2c(n1O)CCc1nonc1-2	1	23	4	-8	-5	i	-3	-4	-3
COc1ccc([C@H]2Cc3cc(O)cc(O)c3C(=O)O2)cc1O	/	/	/	/	/	/	-4	/	16
COc1ccc2nc(NC(=O)Cc3ccc(OC)c(S(=O)(=O)N4CCOCC4)c3)sc2c1	11	3	-4	1	-17	i	1	-3	19
CCn1c(COc2ccc(Cl)cc2)nnc1SCC(=O)Nc1ccc2c(c1)OCCO2	7	10	0	3	7	i	0	4	1
C/C(=N\NC(=O)c1ccc(NS(=O)(=O)c2cccs2)cc1)c1ccccc1	3	5	3	-1	3	i	14	-10	-3
O=S(=O)(c1ccccc1Cl)N1CCC(O)(c2ccc3c(c2)OCO3)CC1	1	-4	-1	0	2	i	-5	-9	-1
Cc1cc(N2CCCC2=O)c(N)cc1N	8	21	-3	1	0	i	8	-4	4
O=C(Nc1cnc2sccn2c1=O)c1ccccc1Cl	8	12	12	2	0	i	2	-1	1
Cc1ccc(-c2nn3c(C)nnc3s2)cc1N	17	-4	-1	1	0	i	-5	5	2
COc1ccc(/C=C/C(=O)Nc2sc3c(c2C(=O)NCc2cccnc2)CCCC3)cc1	48	23	-2	6	0	i	-1	-3	0
CCOC(=O)c1cnc2ccc(OC)cc2c1Nc1ccc2c(c1)OCCO2	-22	2	1	-3	-28	i	?	-6	10
c1csc(-c2nn3cnnc3c3ccccc23)c1	-2	23	1	-6	1	i	1	-9	26
Cc1nc2c(C(=O)NCc3ccc4c(c3)OCO4)c[nH]n2c(=O)c1Cl	-12	25	-3	0	-2	i	-3	13	3
CCOc1cc(S(=O)(=O)NCc2ccc3c(c2)OCO3)c(C)cc1C	-17	2	2	-3	0	i	14	9	-1
C=CCn1c(CCNC(=O)c2cccs2)nnc1SCC(=O)Nc1cccc(C(C)=O)c1	2	17	-1	-8	1	i	2	0	1
COCCn1c(=NC(=O)CSC(C)=O)sc2cc(OC)ccc21	-10	5	1	-9	-9	i	2	-2	-1
Cc1ccc(S(=O)(=O)N(CC(=O)Nc2ccccc2C(=O)O)c2ccc(Cl)cc2)cc1	12	19	-4	4	-2	i	-6	8	-8
O=C(Nc1nnc(-c2ccc3c(c2)CCCC3)o1)c1ccccc1	-22	-37	1	-19	0	i	-10	-2	-3
CSc1nc(N)nc(-c2cccs2)c1C#N	3	37	0	6	-1	i	5	-42	3
Cc1ccccc1S(=O)(=O)Cc1ccc(C(=O)NC(C)c2ccc3c(c2)OCCO3)o1 (centres undefined)	10	9	3	-8	0	i	4	1	-1
CCSc1nc(N)nc(-c2cccs2)c1C#N	19	24	-2	1	-2	i	7	5	0
CSc1nc(Oc2ccc3ccccc3c2)c2sccc2n1	-7	-4	0	-3	1	i	0	-3	-3
COc1ccc2nc(NC(=O)C3CC(=O)N(c4ccccc4)C3)sc2c1 (centres undefined)	-2	24	-2	-1	-19	i	-7	0	11
O=C(Nc1cccc(-c2nn[nH]n2)c1)c1cccs1	9	18	0	-1	-1	i	-4	13	12
Cc1cc2nc3c(=O)[nH]c(=O)[nH]c3nc2c([N+](=O)[O-])c1N	/	/	0	/	/	/	/	/	/
CC(C)[C@H](CO)N(Cc1cccc(F)c1)c1nc(Nc2cccc(Cl)c2)c2ncn(C(C)C)c2n1	-5	19	/	5	-1	i	19	-1	-1
COc1ccc2nc(NC(=O)c3cccc(S(=O)(=O)N4CCOCC4)c3)sc2c1	14	1	3	1	-3	i	1	2	-2
CCCOC(=O)c1cccc(NC(=O)C(C)(C)C)c1	-2	13	-6	0	5	i	3	-6	0
NC(=O)c1cc(NC(=O)c2ccc(NS(=O)(=O)c3cccs3)cc2)cc(C(N)=O)c1	-16	17	1	-6	-2	i	-1	0	3
Cc1ccc(S(=O)(=O)CCC(=O)Nc2nc(-c3ccncc3)cs2)cc1	5	13	0	10	-2	i	2	1	/
C=C1CCN([C@@H](CC(C)C)C(=O)N2CCOCC2)S(=O)(=O)c2ccccc21	1	20	/	-1	1	i	-7	-2	-3
Cc1cccc(-n2cnc3cc(C(=O)N4CCCCC4)ccc32)c1	9	23	-2	9	-6	i	0	7	-2
CCCC12CN(C(=O)c3ccc(OC)cc3)CC(C)(CN(C(=O)c3ccc(OC)cc3)C1)C2=O	5	35	8	0	-1	i	2	-1	-1
O=C(N/N=C/c1ccncc1)c1ccc(NS(=O)(=O)c2cccs2)cc1	4	11	2	-6	-3	i	9	-1	0
Cc1sc2nc(CN3CCCC3)nc(N3CCN(S(=O)(=O)c4cccs4)CC3)c2c1C	8	15	0	2	3	i	-5	-5	4
Cc1cccc(N2C(N)=NC(N)=NC23CCCCC3)c1	0	19	2	0	-1	i	-8	/	-16
Cc1nnc(SCC2CCCO2)n1-c1ccccc1 (centres undefined)	-7	8	7	-7	1	i	11	4	1
CCOc1ccc2nc(NC(=O)C34CC5CC(CC(NC(C)=O)(C5)C3)C4)sc2c1	31	29	-7	18	3	i	-6	-13	/
COc1ccc(C2=NOC(C(=O)NCc3ccc(F)cc3)C2)cc1 (centres undefined)	-5	19	-3	-18	4	i	?	-3	-2
O=C(CCc1ccc(CCC(=O)c2cccs2)s1)c1cccs1	1	3	-1	1	2	i	0	3	-1
Cc1cc(NC(=O)CSc2ccc3nnc(-c4cccc(F)c4)n3n2)no1	8	12	2	14	1	i	3	1	-2
COc1ccc(Cl)cc1N1C(=O)/C(=C\c2sccc2C)N=C1SCC(=O)NC1CC1	?	7	2	7	-1	i	-5	3	-2
COc1ccccc1C(CCN(Cc1ccccc1)C(C)=O)c1ccco1 (centres undefined)	/	5	7	/	-4	i	6	-2	-2
CCn1c(CNc2ccc(C)cc2)nnc1SCC(N)=O	-21	22	-2	-23	0	i	-2	4	-4
CC(=O)[C@H]1[C@H]([C@H](O)[C@H](O)CO)O[C@](O)(C(=O)O)C[C@@H]1O	/	/	/	/	/	/	1	/	7
CC(O)c1cccc(NC(=O)CCCc2ccccc2)c1 (centres undefined)	32	16	5	7	-6	i	-2	2	0
COc1ccc2nc(SCc3cnc(C)nc3N)[nH]c2c1	7	22	2	-1	-1	i	3	-2	-4
Cc1c(C=O)c2ccccn2c1C(=O)c1ccncc1	-6	49	-6	-6	7	/	10	-1	4
CCc1ccc(-n2c(SCC(=O)Nc3cc(C)[nH]n3)nc3[nH]ncc3c2=O)cc1	3	1	-2	-5	-6	i	-3	-21	/
Nc1ncnc(Nc2cccc(F)c2)n1	-12	5	-4	7	-5	i	13	10	10
CC(C)(C)N(Cc1ccccc1)C(=O)c1ccc2c(c1)OCCO2	-12	10	3	-6	-3	i	2	-4	0

3 entries drawn at random from those above, as already listed:
SMILES	HSF-1 act	AI-2 QS modul	HSP90 refold inh	HSF1 inh	GSK3B inh	PolyA inhibitor	HDAC3 inhib	Platelet DG rel	GSK3A inh
COc1ccc(C2=NOC(C(=O)NCc3ccc(F)cc3)C2)cc1 (centres undefined)	-5	19	-3	-18	4	i	?	-3	-2
c1csc(-c2nn3cnnc3c3ccccc23)c1	-2	23	1	-6	1	i	1	-9	26
O=C1Nc2cc(C(=O)N3CCc4ccccc4C3)ccc2S/C1=C\c1ccccc1	6	3	2	2	0	i	4	6	3

Screens: PubChem BioAssay, several laboratories
